BJeLR viability: kills HRASV12-expressing BJeLR cells. BJeLR (HRASV12) viability, CellTiter-Glo ATP luminescence, 48 h; reference of the scale not given here. AID 1554. inhibition, % (concentration not given with the values). 0.17% of 300,000 active;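 active means replicate mean above 50%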;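 further: 50 nL library stock added to about 25 µL; numbers are from one replicate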
Bead autofluor: compound fluorescence in toxin protease inhibitor counterscreen | fluorescence intensity (concentration not given with the values) | compound autofluorescence counterscreen, microsphere flow cytometry; active compounds read high | 3.1% of 360,000 active;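 active means at least 3 SD above the mean of all compounds, about 16000 in these data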;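 further: 100 nL of 1 mM stock went into each well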
RN4220 kill: kills Staphylococcus aureus RN4220. inhibition, % (concentration not given with the values). S. aureus RN4220 growth, OD600, 16 h. 0.33% of 330,000 active;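 active means z-score of -3 or lower and OD600 up to 0.18 on both plates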;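 further: plate controls were untreated cells for no effect and reference antibiotic for full effect; stock transfer was 100 nL into about 80 µL; one replicate is shown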
Mtb hypoxia rep: Mtb hypoxia fluorescent reporter inhibition. fluorescence inhibition, % (no concentration beside the values). 0.1% of 300,000 active. M. tuberculosis hypoxia-regulated fluorescent reporter, fluorescence;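 active means 35 to 45% if threefold the growth effect, above 45% if 1.5-fold the growth effect; inactive means the rest, general growth blockers included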;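 further: wells of about 50 µL received 100 nL stock; 0% = vehicle wells and 100% = reference inhibitor wells; whole bacteria with a GFP reporter of the hypoxia response; strong numbers were not always called active; many hits fall short of the cut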
PrP 5UTR inh: suppresses PrP 5' UTR mRNA reporter expression; 0.35% of 340,000 active; cell-based PrP 5' UTR mRNA reporter, plate reader; inhibition, % (test concentration not listed);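 active means every replicate at 50% or more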;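 further: 0 = median of the neutral control wells; tested in H4 reporter cells; numbers are from one replicate; inactives centre near -14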
Sa ugtP lethal: growth inhibition of S. aureus ugtP deletion strain; S. aureus RN4220 ugtP deletion, OD600 growth, 16 h; some inactives read as strong as hits; growth inhibition, % (no concentration beside the values); 0.54% of 330,000 active; AID 1259309;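 active means z-score under -3 and OD600 up to 0.15 on both plates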;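 further: plate controls were untreated wells for no effect and antibiotic for full effect; wells of about 80 µL received 100 nL stock; the first replicate is given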
Mtb hypoxia rep growth: also measured in Mtb hypoxia rep; calls as there; growth inhibition, %; measured here: M. tuberculosis growth (absorbance);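 0% = vehicle and 100% = reference antibiotic; read after six days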
Numbers without * were called inactive; x = not tested or not shown. Hits appear at their usual frequency; 4% or so of the library scored in one or more.

compound	BJeLR viability	Bead autofluor	RN4220 kill	Mtb hypoxia rep	Mtb hypoxia rep growth	PrP 5UTR inh	Sa ugtP lethal
COC(=O)CSc1nc(N)c(C#N)c(CC(C)C)c1C#N	-7	2169	6.1	11	18	-6	2
CCc1ccc(N2CC(C(=O)Nc3ccc(S(=O)(=O)NCC4CCCO4)cc3)CC2=O)cc1 (configuration not stated)	-8	5140	x	x	x	-27	x
CCCn1c(N)c(C(=O)CSc2nnc(-c3ccoc3C)n2C)c(=O)n(C)c1=O	x	2796	5.3	1	2	-21	5
COc1ccc(NC(=O)C/C(C)=N/NC(=O)C(=O)NC(C)C)c(OC)c1	4	4761	x	x	x	1	x
C[C@]12CCC3C(CCC4=C/C(=N/OCC(=O)NC(CCC(N)=O)C(=O)O)CC[C@@]43C)C1CCC2O (some centres not stated)	-2	3508	x	x	x	-14	x
CN(CC(=O)NCC(=O)Nc1ccc(F)cc1)C1CCS(=O)(=O)C1 (configuration not stated)	x	7795	4.6	7	10	-18	1
Cc1ccc(S(=O)(=O)N(C)CCCC(=O)N2CCN(C=O)CC2)cc1	-1	15341	1.3	1	-1	-8	4
CCCCCn1c(=O)[nH]c2cc(C(=O)NCc3ccccn3)ccc2c1=O	-11	5071	-0.8	4	3	-35	2
Cc1cc(Cl)c(S(=O)(=O)NCc2ccncc2)cc1OCC(N)=O	0	4511	2.6	x	x	-14	1
CC(C)CNc1cc(Cl)c(S(=O)(=O)NCC(C)C)cc1C(=O)O	-6	2747	8.5	x	x	-9	-4
Cc1cc(C)n(Cc2nc3ccccc3n2C)n1	1	2991	0.3	x	x	-19	5
CC(C)CN(CC(C)C)S(=O)(=O)N1CCC(C(=O)NCCc2ccc(Cl)cc2)CC1	0	3883	4.3	14	11	-16	-4
CCCCN1C(=S)NC[C@@H]1c1ccccc1	-1	2791	x	x	x	-13	x
Cc1ccc(C(=O)c2c3ccc(C(F)(F)F)cc3[n+]([O-])n2CCCC(N)=O)cc1	3	3860	7.2	18	8	-5	3
CC1Cc2cc(/C(O)=C3/C(=O)C(=O)N(CCCn4ccnc4)C3c3cccnc3)ccc2O1 (configuration not stated)	-4	17226*	5.1	5	3	-3	2
COc1c(C)cc(C(=O)C2CCCN(C(=O)c3cccc(-n4cccn4)c3)C2)cc1C (configuration not stated)	-1	3766	4.1	13	5	-12	6
CSc1ccc(-c2nnn(CC(=O)NCc3ccccc3)n2)cc1	-1	5110	-8.7	x	x	-17	12
Cc1ccc(NC(=O)CSc2nc(NS(=O)(=O)c3ccc(C)cc3)cc(=O)[nH]2)cc1	-3	19078*	4.3	5	11	-23	-5
CCOCCCNC(=O)C1CCN(S(=O)(=O)N(CC(C)C)CC(C)C)CC1	x	12895	10	17	6	-20	7
Cn1c(SCc2ccc([N+](=O)[O-])cc2)nnc1-c1cccnc1	-8	2586	-2.2	-7	2	-4	-2
CCOC(=O)COc1c(/C=N\OC)cc(Cl)cc1OC	4	1971	x	x	x	-24	x
CS(=O)(=O)N1CCC(C(=O)NCc2ccc(Cl)cc2Cl)CC1	-18	4057	-0.3	5	1	-13	0
Cc1ccc(C)c(N(Cc2ccccc2F)S(C)(=O)=O)c1	-3	4652	2.9	x	x	2	7
Cc1ccc(-n2nc(C)c3c2OC(N)=C(C#N)C3c2ccoc2)cc1 (configuration not stated)	1	8097	6.0	11	10	-25	-12
Cc1cc(C)n(-c2ccc(Cl)c(C(=O)Nc3ccc(OC(F)(F)F)cc3)n2)n1	7	2134	7.8	5	-7	-40	8
CC(C)[C@H](NS(=O)(=O)c1ccccc1)C(=O)OCC(=O)Nc1cccc(S(N)(=O)=O)c1	x	5905	1.1	-1	9	-9	2
Cc1onc(-c2c(Cl)cccc2Cl)c1C(=O)N1CCN(c2ncccn2)CC1	-2	4496	3.5	17	14	-27	4
CCC(=O)NC(=S)Nc1cccc(NC(=O)c2ccc(Cl)cc2Cl)c1	2	2862	12	x	x	-2	6
COC(=O)C(c1ccccc1)C(C(=O)OC)c1ccccc1 (configuration not stated)	0	3268	0.9	-1	-8	-16	3
O=C(NN=Cc1ccc(F)cc1)c1ccc(Cn2cc(Br)c([N+](=O)[O-])n2)o1	x	x	6.5	4	2	x	7
CCC(=O)c1ccc(N2CCN(C(=O)c3ccccc3)CC2)c(F)c1	-5	2100	3.7	5	15	4	1
O=C(C1CCCO1)N(Cc1ccccc1)c1ccccc1 (configuration not stated)	3	16130*	-1.5	4	6	-10	4
O=C(c1oc2ccccc2c1N1CCCCC1)N1CCCCC1	-6	12591	7.8	6	7	-18	4
N#Cc1cccc(NC(=O)COC(=O)Cn2nc(-c3ccccc3)oc2=O)c1	x	6465	-1.6	7	9	-6	-3
CN(C)S(=O)(=O)c1ccc(S(=O)(=O)N2CCCC(C(=O)NC3CC3)C2)cc1 (configuration not stated)	-1	6253	-0.2	-4	-8	-2	7
CCN(Cc1nc2ccccc2c(=O)[nH]1)C(=O)c1cc(C2CC2)nn1-c1ccccc1	x	5571	4.7	-2	0	-5	3
O=C(c1ccccc1)N1CCN(Cc2ccccc2)CC1	-9	12356	4.2	9	6	-4	9
Nc1nnc(SCc2ccc(F)cc2)n1-c1ccccc1	-8	21997*	4.9	5	10	-25	2
Cc1ccc(-n2c(C)c(C)c3c(N)ncnc32)cc1	-7	5575	0.2	-9	13	-13	-1
COc1cc(C=CC(=O)OC2C(CO)OC(OCCc3ccc(O)c(OC)c3)C(O)C2OC2OC(C)C(O)C(O)C2O)ccc1O (configuration not stated)	x	x	0.7	2	10	x	-3
CCC(=O)NN=c1sc2ccccc2n1C	x	x	4.4	4	10	x	6
Cc1cc(=O)oc2c(C)c(OC(C)C(=O)NCC(O)c3ccccc3)ccc12 (configuration not stated)	3	5341	x	x	x	-21	x
Cc1ccccc1OCc1nc2ccccc2[nH]1	13	4674	1.5	9	12	-77	5
Cc1ccccc1OCC(O)CN(Cc1ccccc1O)C1CCCCC1 (configuration not stated)	13	4454	-2.4	10	4	-22	-57
COc1ccc(CNC(=O)c2oc3ccc(S(=O)(=O)N4CCOCC4)cc3c2C)cc1	4	3971	2.4	8	4	-7	5
O=[N+]([O-])c1ccc2nc(NS(=O)(=O)c3ccc(Cl)cc3)sc2c1	-5	3816	16	13	3	-31	7
CCOC(=O)c1c(NC(=O)/C=C/c2ccc(C)o2)sc(C)c1C	7	4490	0.0	10	4	-6	6
O=C(CCCc1ccccc1)NCc1ccccc1	1	x	3.9	13	7	x	11
CC1(C)CC(C(CC(=O)Nc2nccs2)c2ccccc2)CCO1 (configuration not stated)	-13	2740	3.0	-7	-2	-13	7
O=C(NCc1ccc(Cl)cc1)c1cc(-c2ccco2)on1	1	11224	0.6	6	0	x	7
CC(C)=CCOc1ccc2ccc(=O)oc2c1	7	5973	6.1	x	x	-21	-5
Cc1cccc(NC(=O)c2ccccc2NC(=O)CCC(=O)O)c1	1	2063	5.6	16	9	-19	6
COc1ccccc1C(=O)Nc1ccnn1C1CCN(C(C)CSC)CC1 (configuration not stated)	6	6877	0.8	10	13	-10	3
CCCCC(CC)COCCCN=Cc1c(O)[nH]c(=S)[nH]c1=O (configuration not stated)	5	5712	3.8	-3	19	x	-7
Cc1nnc(SCc2ccc([N+](=O)[O-])cc2)o1	-2	4006	6.1	12	8	-14	0
Cc1nc(CS(=O)(=O)c2ccccc2)cc(Sc2ccc(Cl)cc2)n1	-1	2770	3.4	x	x	-19	2
O=C(N1CCN(Cc2ccccc2)CC1)C12CC3CC(CC(C3)C1)C2	7	2688	5.4	7	6	-12	2
CC(=NNC(=O)c1ccc(Br)o1)c1ccc(C)o1	x	x	2.6	10	2	x	0
C=CCn1c(/N=C/c2ccc(N(C)C)cc2)nc2ccccc21	5	8723	x	x	x	-14	x
COC(=O)NN=Cc1cc(C)n(-c2ccc(Br)cc2)c1C	x	x	0.4	3	13	x	4

3 compounds from above with just Mtb hypoxia rep growth and RN4220 kill.
structure	Mtb hypoxia rep growth	RN4220 kill
COc1ccc(CNC(=O)c2oc3ccc(S(=O)(=O)N4CCOCC4)cc3c2C)cc1	4	2.4
Cc1nnc(SCc2ccc([N+](=O)[O-])cc2)o1	8	6.1
O=C(NCc1ccc(Cl)cc1)c1cc(-c2ccco2)on1	0	0.6

Entries of single compounds from above. Screens in order: BJeLR viability, Bead autofluor, RN4220 kill, Mtb hypoxia rep, Mtb hypoxia rep growth, PrP 5UTR inh, Sa ugtP lethal
Record of CCCCCn1c(=O)[nH]c2cc(C(=O)NCc3ccccn3)ccc2c1=O → -11, 5071, -0.8, 4, 3, -35, 2
Record of Cc1ccc(S(=O)(=O)N(C)CCCC(=O)N2CCN(C=O)CC2)cc1 → -1, 15341, 1.3, 1, -1, -8, 4

Pulled one by one from above, two records:
compound	BJeLR viability	Bead autofluor	RN4220 kill	Mtb hypoxia rep	Mtb hypoxia rep growth	PrP 5UTR inh	Sa ugtP lethal
O=C(N1CCN(Cc2ccccc2)CC1)C12CC3CC(CC(C3)C1)C2	7	2688	5.4	7	6	-12	2
COc1ccc(CNC(=O)c2oc3ccc(S(=O)(=O)N4CCOCC4)cc3c2C)cc1	4	3971	2.4	8	4	-7	5

Continuation:
compound	BJeLR viability	Bead autofluor	RN4220 kill	Mtb hypoxia rep	Mtb hypoxia rep growth	PrP 5UTR inh	Sa ugtP lethal
O=C(O)c1cccc(NC(=O)C2C3C=CC(C3)C2C(=O)O)c1 (configuration not stated)	-1	x	-14	5	3	-15	-3
CC(=O)c1ccc(NC(=O)CSc2nnc(-c3ccco3)c(-c3ccco3)n2)cc1	-3	2499	-2.1	3	4	-29	2
CC(C)(CC(=O)N1CCN(c2ccc(Cl)cc2)CC1)CC1=NS(=O)(=O)c2ccccc2N1	-7	3268	-1.2	6	8	-18	-4
CCCN1C(=O)SC(CC(=O)Nc2ccccc2)C1=O (configuration not stated)	-7	9083	8.8	12	10	-28	-7
Cc1c(NC(=O)C(C)OC(=O)c2ccc([N+](=O)[O-])s2)c(=O)n(-c2ccccc2)n1C (configuration not stated)	9	4297	14	2	8	-46	7
CCOC(=O)COc1cnc2ccccc2n1	-8	2559	1.3	-2	5	-9	2
O=C(Nc1ccccc1Cl)c1ccc2nccnc2c1	0	3213	1.3	8	1	-53	7
O=C(NCc1ccccn1)C1C2C=CC(C2)C1C(=O)Nc1ccc(F)cc1 (configuration not stated)	-6	4806	-2.3	x	x	-21	-8
Cc1cccc(NC(=O)CN(CCc2ccccc2)S(C)(=O)=O)c1	1	5768	1.1	-2	10	0	-3
CCOC(=O)COc1ccc(/C=C/[N+](=O)[O-])c(OCC(=O)OCC)c1	1	9581	6.6	11	6	-29	-11
Cc1ccnc(NS(=O)(=O)c2ccc(NC(=O)C3CCCNC3=O)cc2)n1 (configuration not stated)	-11	3589	-0.1	5	-1	-5	-1
Cc1cccc(NC(=O)CSc2nnc(-c3n[nH]c4ccccc34)o2)c1	-15	2441	1.9	-9	13	-76	-7
O=C(COC(=O)CNC(=O)c1ccco1)NCCN1C(=O)CSC1=O	11	15635	-2.4	-9	5	-17	-3
O=C(NC1CCSc2ccccc21)c1cc([N+](=O)[O-])ccc1N1CCOCC1 (configuration not stated)	-6	5084	1.7	1	1	-3	3
C=C(C)C1CNC(C(=O)O)C1CC(=O)O (configuration not stated)	x	x	-2.5	-3	6	x	-3
COc1cccc(-c2nc(-c3ccc(C(=O)O)cc3)no2)c1	10	2846	6.4	4	12	-96	6
O=C1CC(NCC2CCCO2)C(=O)N1c1ccc(Cl)cc1 (configuration not stated)	-7	2506	3.6	9	-1	-20	9
N#Cc1ccc(C(=O)N2CCN(c3ncccn3)CC2)cc1	-7	2917	0.2	15	1	-26	15
Cc1cc(N2CCN(C)CC2)nc2ccc(NC(=S)N3CCN(c4ccc(F)cc4)CC3)cc12	-1	5343	4.6	-1	0	-7	0
COC(=O)c1noc(-c2ccc(OC)cc2)n1	-10	3569	6.5	x	x	-6	-1
Cc1cc2occ(CC(=O)NNC(=O)c3ccccc3F)c2cc1C	-11	5149	-0.8	-1	3	-31	0
CCN(CC(=O)NC1CCS(=O)(=O)C1)S(=O)(=O)c1cccc(C(C)=O)c1 (configuration not stated)	3	4239	2.7	11	-2	-4	6
